From PubChem BioAssay
StopGo reporter: lowers the luciferase signal of an FMDV 2A StopGo reporter | human cells with a luciferase reporter of 2A StopGo recoding; control for the full effect not named in the record | Potency, µM (titrated, usually from 57.9 µM), inactives show at the top dose signal change, negative = less light | 410,000 tested, 1.2% active; active = well fitted falling curve with a large enough effect; inconclusive = small, poorly fitted or top-dose-only effect; inactive = no such curve, though single readings can be large or run the other way; tested in HEK293T cells; note: % is set by controls: 0 for no effect and ±100 for the full control effect; nearly all actives have a fitted effect of over 45% in size; luciferase light after 4 h
Marburg entry inh: inhibitors of Marburg virus binding or cell entry. Potency, µM (doses to about 37.8 µM), without a hit: at the highest dose activity change, negative = inhibition, actives largely listed as inhibitors. 300,000 tested, 1.8% active. Marburg virus pseudotyped entry inhibition, cell reporter; control for the full effect not named in the record; about a third of the inactives were read at about 46 µM; active = well fitted inhibition curve with a large enough effect; inconclusive = small, poorly fitted or top-dose-only effect, or effect the other way; inactive = flat fitted curve, though single readings scatter; tested in HEK293 cells; about a fifth of its hits are not listed in these tables; note: % is set by controls: 0 for no effect and ±100 for the full control effect; luciferase read-out
Cruzain inh Det: cruzain (T. cruzi) inhibition with detergent; P25779; purified cruzain, Z-FR-AMC fluorescence, 0.01% Triton; Potency, µM, for inactives: max response, negative = inhibition, most hits filed as inhibitors; 200,000 tested, 0.43% active; active = well fitted curve in the direction sought with a large enough effect; inconclusive = small, poorly fitted or top-dose-only effect, or another doubt; inactive = no such curve, though single readings can be large; an effect the other way counts as inactive or inconclusive;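 note: plate controls were neutral wells for no effect and buffer without enzyme for full effect; nearly all actives have a fitted effect of over 40% in size; top concentration of the series not given in the record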
Target sequence (P25779 123-467 limits assumed): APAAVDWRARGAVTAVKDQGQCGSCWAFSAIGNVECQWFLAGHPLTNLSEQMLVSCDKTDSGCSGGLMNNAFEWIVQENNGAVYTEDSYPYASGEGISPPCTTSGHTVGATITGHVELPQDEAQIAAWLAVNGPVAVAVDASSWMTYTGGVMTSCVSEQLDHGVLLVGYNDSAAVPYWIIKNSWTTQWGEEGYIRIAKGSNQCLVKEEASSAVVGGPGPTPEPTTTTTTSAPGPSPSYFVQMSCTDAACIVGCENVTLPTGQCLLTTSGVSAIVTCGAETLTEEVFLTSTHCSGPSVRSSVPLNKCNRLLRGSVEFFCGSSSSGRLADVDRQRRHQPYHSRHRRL
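Detergent-containing run (0.01% Triton X-100) in acetate buffer pH 5.5 with 5 mM DTT: enzyme at 1.5 nM final, 15 min compound preincubation at room temperature, then 2 uM Z-FR-AMC substrate. Activity taken as 60 s fluorescence increase at 360/450 nm.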
NS1 function inh: inhibitors of influenza NS1 protein function; S. cerevisiae slowed by influenza A NS1, growth recovery by OD600; Potency, µM (series often up to 46.1 µM), for the others: top-dose activity, positive = more growth; 270,000 tested, 0.4% active; AID 2326; note: actives are rising curves; nearly all actives have a fitted effect of over 50% in size
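In this qHTS, NS1 from influenza A is expressed in budding yeast, where it slows growth. Cells are switched from glucose to 2% galactose medium (pH 6.0, -URA), treated with compound, and growth recovery is read at OD600.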
SARS PLpro yeast: blocks SARS-CoV papain-like protease in a yeast assay | AID 485353 | Potency, µM (top dose mostly 32.9 µM), without a hit: at the top dose activity, positive = growth rescue | 330,000 tested, 0.19% active | S. cerevisiae expressing SARS-CoV PLpro, growth rescue; control for the full effect not named in the record; note: 0% is about no effect; nearly all actives have a fitted effect of over 55% in size; growth read by luminescence after 48 h
Cruzain inh noDet: blocks cruzain activity in detergent-free assay. P25779. purified cruzain, Z-FR-AMC fluorescence, no detergent. Potency, µM, without a hit: max response, negative = inhibition, most hits filed as inhibitors. 200,000 tested, 2.3% active. AID 1476; active = well fitted curve in the direction sought with a large enough effect; inconclusive = small, poorly fitted or top-dose-only effect, or another doubt; inactive = no such curve, though single readings can be large; an effect the other way counts as inactive or inconclusive;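 note: plate controls were enzyme without inhibitor for no effect and buffer without enzyme for full effect; nearly all actives have a fitted effect of over 40% in size; top concentration of the series not given in the record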
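Detergent-free condition (0.00005% Triton X-100) in acetate buffer pH 5.5 with DTT. 1.5 nM enzyme and compound were pre-mixed 15 min, then 2 uM Z-FR-AMC substrate added; reaction progress from fluorescence change between first and third reads (60 s).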
RE007 growth inh: less growth of the S. pombe RE007 Vpr strain | Potency, µM (highest dose often 92.2 µM), without a hit: top-dose activity change, negative = less growth | 360,000 tested, 0.21% active | S. pombe RE007 Vpr strain, BacTiter-Glo ATP luminescence, 24 h; control for the full effect not named in the record; active = well fitted falling curve with a large enough effect; inconclusive = small, poorly fitted or top-dose-only effect; inactive = no such curve, though single readings can be large or run the other way;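 note: % is set by controls: 0 for no effect and ±100 for the full control effect; nearly all actives have a fitted effect of over 50% in size; the assay follows cell death caused by Vpr and the record does not say whether a fall means rescue or toxicity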
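Fission yeast strain RE007, carrying one chromosomally integrated HIV-1 vpr copy, was seeded at OD 0.01 in PMG+AL medium with 23 nL pinned compound. After 24 h at 30 °C and 99% humidity, viability was read by BacTiter-Glo luminescence.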
Lassa entry inh: blocks Lassa virus binding to or entry into cells; 300,000 tested, 1.2% active; Lassa virus pseudotype entry inhibition, cell reporter; control for the full effect not named in the record; Potency, µM (highest dose often 37.9 µM), for the others: top-dose activity change, negative = inhibition, usual class: inhibitors; active means well fitted inhibition curve with a large enough effect; inconclusive means small, poorly fitted or top-dose-only effect, or effect the other way; inactive means flat fitted curve, though single readings scatter; tested in HEK293 cells; note: % is set by controls: 0 for no effect and ±100 for the full control effect; nearly all actives have a fitted effect of over 50% in size; luciferase read-out
* marks the source's active call; other numbers are inactive results; [ ] = remark or other dose. Unless noted, calls come from the whole dose curve; as a rule, active means well fitted rising curve with a large enough effect; inconclusive means small, poorly fitted or top-dose-only effect; inactive means no such curve, though single readings can be large or run the other way. Potency is the fitted concentration of half-maximal effect.

Screening Cc1cc(OCC(O)CN(C)C(=O)C(C)Oc2ccccc2)ccc1Cl (centres undefined) returned StopGo reporter -24%, NS1 function inh 15%, SARS PLpro yeast -6% and RE007 growth inh -1%.
Screening CC(=O)c1c(C)[nH]c(C(=O)CN2C(=O)NC3(CCCCC3)C2=O)c1C returned StopGo reporter 6%, Marburg entry inh inconclusive, SARS PLpro yeast 1%, RE007 growth inh -3% and Lassa entry inh 24%.
COc1ccc(CN2C(=O)c3cccnc3C2=O)cc1S(=O)(=O)NCc1ccc(C)o1 was read as StopGo reporter 5%, NS1 function inh -1%, SARS PLpro yeast 0% and RE007 growth inh -9%.
CN1CCN(C(=O)C2CCN(c3ncnc4c3nc3n4CCCCC3)CC2)CC1 was read as StopGo reporter 9%, NS1 function inh 4%, SARS PLpro yeast 7% and RE007 growth inh -2%.
Screening CCOc1ccccc1C(=O)Nc1nnc(Cc2ccc(OC)c(OC)c2)s1 returned StopGo reporter -20%, NS1 function inh 24%, SARS PLpro yeast 2% and RE007 growth inh 13%.
`CCCCOc1ccc(/C=N/NC(=O)c2nnn(-c3nonc3N)c2C)cc1` gave StopGo reporter -7%, NS1 function inh -10%, SARS PLpro yeast -3% and RE007 growth inh 1%.
`CCCCN1C(=O)C(=O)N(CC(=O)N2N=C3/C(=C/c4ccco4)CCCC3C2c2ccco2)C1=O` (centres undefined) gave StopGo reporter 24%, Marburg entry inh 4%[46.1 µM], SARS PLpro yeast -4%, RE007 growth inh -3% and Lassa entry inh 14%.
Screening O=C(Nc1ccccc1C(=O)Nc1ccc(Cl)cc1)c1cccnc1 returned StopGo reporter 0%, NS1 function inh 0%, SARS PLpro yeast -2% and RE007 growth inh -5%.
COc1cccc(CC(=O)Nc2cc(S(=O)(=O)N3CCOCC3)ccc2N2CCOCC2)c1 was read as StopGo reporter 10%, Marburg entry inh 14%, SARS PLpro yeast 1%, RE007 growth inh 8% and Lassa entry inh 7%.
`CC(=O)NC(NC(=S)Nc1ccc(C)cc1C)C(Cl)(Cl)Cl` (centres undefined) gave StopGo reporter -9%, NS1 function inh -1%, SARS PLpro yeast 2% and RE007 growth inh 16%.
For Cc1ccc(NC(=O)CCNC(=O)Cn2ccc3ccccc3c2=O)cc1F the results were StopGo reporter -21%, Marburg entry inh inconclusive, NS1 function inh 13%, SARS PLpro yeast 1%, RE007 growth inh 9% and Lassa entry inh 11%.
`CSc1nc(N)nc(SCCS(=O)(=O)c2ccc(Cl)cc2)c1C#N` gave StopGo reporter inconclusive, Marburg entry inh inconclusive, Cruzain inh Det -5.1%, NS1 function inh 6%, SARS PLpro yeast -5%, Cruzain inh noDet -17%, RE007 growth inh 5% and Lassa entry inh 0%.
Cc1sc2ncnc(N3CCN(S(=O)(=O)c4ccc(Br)cc4)CC3)c2c1C was read as StopGo reporter inconclusive, Marburg entry inh 3%, RE007 growth inh -5% and Lassa entry inh -15%.
Screening CC(C)(C)c1ccc(NC(=O)CNC2CCCc3ccccc32)cc1 (centres undefined) returned StopGo reporter -10%, Marburg entry inh 2%[46.1 µM], NS1 function inh 7%, SARS PLpro yeast -4%, RE007 growth inh 1% and Lassa entry inh -10%.
Screening COc1cccc(-c2cc(C(F)(F)F)nc(-n3cc(Cl)cn3)n2)c1 returned StopGo reporter inconclusive, Marburg entry inh -15%, Cruzain inh Det -21%, NS1 function inh 8%, SARS PLpro yeast -9%, Cruzain inh noDet inconclusive, RE007 growth inh 8% and Lassa entry inh 12%.
COc1ccc(S(=O)(=O)N2CCCC(C(=O)N3CCN(c4ccccc4)CC3)C2)cc1Cl (centres undefined) was read as StopGo reporter 35µM*, Marburg entry inh -22%, NS1 function inh 20%, SARS PLpro yeast 14%, RE007 growth inh 3% and Lassa entry inh inconclusive.
For O=C(c1ccc(Cl)cc1)N1CCCCC(Sc2nnc(-c3ccc4c(c3)OCO4)o2)C1=O (centres undefined) the results were StopGo reporter 10µM*, Marburg entry inh inconclusive, Cruzain inh Det -1.3%, NS1 function inh -4%, SARS PLpro yeast -1%, Cruzain inh noDet inconclusive, RE007 growth inh 11% and Lassa entry inh inconclusive.
CC(=O)NC(Cc1ccccc1)C(=O)NC1CCN(C(=O)NCc2ccccc2)CC1 (centres undefined) was read as StopGo reporter -8%, Marburg entry inh inconclusive, NS1 function inh 9%, SARS PLpro yeast -2% and RE007 growth inh -6%.
`CCOc1ccc(CNC(=O)Cn2nc(N3CCN(c4ccccc4)CC3)ccc2=O)cc1` gave StopGo reporter inconclusive, Cruzain inh Det -1.1%, Cruzain inh noDet inconclusive and Lassa entry inh inconclusive.
O=C(N/N=C/c1cccnc1)c1cc2c(ccc3ccccc32)o1 was read as StopGo reporter 2%, Marburg entry inh -12%, Cruzain inh Det -22%, NS1 function inh 3%, SARS PLpro yeast -9%, Cruzain inh noDet 4%, RE007 growth inh 10% and Lassa entry inh -14%.
Screening Cn1cc(C(=O)c2cccc(Cl)c2Cl)cc1C#N returned StopGo reporter -9%, Marburg entry inh 7%[46.1 µM], NS1 function inh -7%, SARS PLpro yeast 1%, RE007 growth inh 18% and Lassa entry inh 12%.
`O=C(Nc1ccc(Cl)cc1)c1ccc(OCC2CCCO2)cc1` (centres undefined) gave StopGo reporter 7%, Marburg entry inh inconclusive, NS1 function inh -2%, SARS PLpro yeast -2%, RE007 growth inh 6% and Lassa entry inh inconclusive.
For CC1CC(=O)Nc2ccccc2N1C(=O)Cn1cnc2ccc(Br)cc2c1=O (centres undefined) the results were StopGo reporter -12%, Marburg entry inh 30%, SARS PLpro yeast 1%, RE007 growth inh 4% and Lassa entry inh -21%.
`CCc1cc2c(=O)c(-c3nc(C)cs3)coc2cc1O` gave StopGo reporter 28%, Marburg entry inh 0%[46.1 µM], NS1 function inh 8%, SARS PLpro yeast -1%, RE007 growth inh -2% and Lassa entry inh -14%.
CC(C)(C)c1cc(/C=N/O)cc(C(C)(C)C)c1O was read as StopGo reporter -3%, Marburg entry inh inconclusive, Cruzain inh Det -5.1%, NS1 function inh -49%, SARS PLpro yeast -12%, Cruzain inh noDet 3% and Lassa entry inh -2%.
Screening CC(C)C(=O)Nc1c(-c2ccc(Cl)cc2)c(=O)c2ccccc2n1C returned StopGo reporter -16%, NS1 function inh inconclusive, SARS PLpro yeast 1% and RE007 growth inh -8%.
For COc1ccc(C(CNC(=O)c2ccco2)N2CCCCC2)cc1 (centres undefined) the results were StopGo reporter 23%, Marburg entry inh -5%[46.1 µM], NS1 function inh 8%, SARS PLpro yeast 0%, RE007 growth inh 4% and Lassa entry inh 0%.
`CCC12CN3CC(CC)(CN(C1)C3c1cccnc1)C2=O` (centres undefined) gave StopGo reporter -19%, Marburg entry inh -8%, Cruzain inh Det 2.6%, NS1 function inh 1%, SARS PLpro yeast -1%, Cruzain inh noDet 5%, RE007 growth inh 5% and Lassa entry inh 2%.
For O=c1c2sc3ccccc3c2n(Cc2ccc(F)cc2Cl)c(=O)n1Cc1ccccc1 the results were StopGo reporter -8%, Marburg entry inh inconclusive, Cruzain inh Det -0.9%, Cruzain inh noDet 7% and Lassa entry inh 2%[46.1 µM].
For Cc1ccc(S(=O)(=O)N2CCCC2C(=O)NCc2ccncc2)cc1 (centres undefined) the results were StopGo reporter 4%, NS1 function inh 0%, SARS PLpro yeast 0% and RE007 growth inh -4%.
Screening CCOC(=O)Cc1cc(=O)c2c(=O)n(-c3ccccc3)[nH]c2[nH]1 returned StopGo reporter -16%, Marburg entry inh 17%, Cruzain inh Det -4.5%, NS1 function inh inconclusive, SARS PLpro yeast 5%, Cruzain inh noDet -6%, RE007 growth inh 29% and Lassa entry inh 5%.
Screening CCOC(=O)c1ccc(NC(=O)Cn2ncc(Cl)c(Cl)c2=O)cc1 returned StopGo reporter 40µM*, Marburg entry inh 3.2µM*, Cruzain inh Det -7.7%, NS1 function inh -16%, SARS PLpro yeast -16%, Cruzain inh noDet -3%, RE007 growth inh -10% and Lassa entry inh inconclusive.
Cc1ccc2c(CC(=O)N(Cc3cccc(Cl)c3)C3CCS(=O)(=O)C3)coc2c1 (centres undefined) was read as StopGo reporter -21%, Marburg entry inh -29%[46.1 µM], Cruzain inh Det -6.4%, Cruzain inh noDet inconclusive and Lassa entry inh -11%[46.1 µM].
`O=C(NCc1cccc(Br)c1)C1CCCCN1S(=O)(=O)c1ccc(F)cc1` (centres undefined) gave StopGo reporter -8%, Cruzain inh Det -5.3%, Cruzain inh noDet -3% and Lassa entry inh -3%[46.1 µM].
`CO/N=C/c1ccc(Oc2ccc(C)cc2)nc1` gave StopGo reporter 11%, Marburg entry inh -1%, Cruzain inh Det 3.0%, NS1 function inh -22%, SARS PLpro yeast 8%, Cruzain inh noDet -1%, RE007 growth inh -21% and Lassa entry inh 2%.
For COc1ccc(/C=C/C(=O)c2nc3ccccc3n2CC(=O)c2ccc(OC)cc2)cc1 the results were StopGo reporter -11%, Marburg entry inh inconclusive, Cruzain inh Det -1.3%, NS1 function inh 21%, SARS PLpro yeast 2%, Cruzain inh noDet inconclusive, RE007 growth inh 10% and Lassa entry inh -25%.
For COC(=O)c1c[nH]n2c(=O)c(Cl)c(C)nc12 the results were StopGo reporter 65%[activator], Marburg entry inh 9%, Cruzain inh Det -1.8%, NS1 function inh 7%, SARS PLpro yeast -31%, Cruzain inh noDet 1%, RE007 growth inh -13% and Lassa entry inh inconclusive.
Cc1nc2c(ncn2-c2ccccc2)c(=O)n1NC(=O)CN1CCOCC1 was read as StopGo reporter -24%, NS1 function inh -1%, SARS PLpro yeast -1% and RE007 growth inh 15%.
Screening Cc1sc2ncn(CC(=O)N3CCOCC3)c(=O)c2c1-c1ccccc1 returned StopGo reporter 11%, Marburg entry inh inconclusive, SARS PLpro yeast 0%, RE007 growth inh 7% and Lassa entry inh 8%.
Screening O=C(NC(c1ccccc1)C(Cl)(Cl)Cl)c1ccccc1 (centres undefined) returned StopGo reporter inconclusive, Marburg entry inh inconclusive, Cruzain inh Det -4.8%, NS1 function inh 8%, SARS PLpro yeast -44%, Cruzain inh noDet -11%, RE007 growth inh 15% and Lassa entry inh inconclusive.
